Screening data: PubChem, several laboratories
HIV Env fusion: inhibitors of HIV-1 Env-driven cell-cell fusion, primary screen, HeLa-JRFL effector, CEM21 target cells, luciferase. hit rate 1.1% among 360,000. inhibition, % at 12.3 µM. AID 651610, 2012;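 active = mean replicate inhibition score of at least 50 and every replicate individually at or above 50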;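 note: 0% = plate neutral controls and 100% = maraviroc near 300 nM; one replicate is shown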
Rce1 inhib: yeast Rce1p protease inhibitors, primary screen, biochemical, fluorescence, cell-free homogeneous | yeast membranes, quenched prenylated peptide cleavage fluorescence | calls only | hit rate 0.27% among 290,000 | AID 2563, 2010 | CAAX prenyl protease 2 (Saccharomyces cerevisiae (strain ATCC 204508 / S288c)), Q03530;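 active = fall in fluorescence gain of 50% or more versus controls, with final raw signal at or below 3038400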;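 note: plate controls were neutral control wells for no effect and wells lacking membranes for full effect; tested at 10 µM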
Target sequence (Q03530 whole entry, looked up): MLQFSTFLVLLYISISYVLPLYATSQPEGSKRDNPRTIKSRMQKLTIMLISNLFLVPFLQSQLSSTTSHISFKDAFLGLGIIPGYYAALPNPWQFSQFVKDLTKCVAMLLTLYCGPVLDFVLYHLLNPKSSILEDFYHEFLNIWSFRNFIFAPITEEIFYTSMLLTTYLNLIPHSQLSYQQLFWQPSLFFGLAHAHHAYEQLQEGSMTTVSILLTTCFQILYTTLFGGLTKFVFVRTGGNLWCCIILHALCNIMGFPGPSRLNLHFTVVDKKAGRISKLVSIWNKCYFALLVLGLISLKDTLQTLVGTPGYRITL
Yeast UUG start: modulators of yeast start codon fidelity, primary screen, whole organism, S. cerevisiae, single point, plate reader; hit rate 0.13% among 350,000; S. cerevisiae UUG-firefly luciferase reporter, luminescence/redox ratio; AID 602363, 2012; activity score, % at 18.7 µM;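 active = replicate mean at a twofold rise or more, about +100% in these data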;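 note: firefly luciferase made from a UUG start codon reports start codon fidelity; reporter light over untreated wells divided by growth signal over untreated wells; some hits fall short of that in this replicate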
PABP polyA inh: PABP poly(A) RNA binding inhibitors, primary screen, biochemical, fluorescence polarization, uHTS; Polyadenylate-binding protein 1 (Homo sapiens), P11940; inhibition, % at 35 µM; hit rate 1% among 290,000; AID 2014, 2009;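 active = 50% or more with normal probe brightness, or confirmed in later tests; about a fifth of its hits are not listed in these tables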;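 note: calls also rest on retests at 20 µM and on dose response follow-up; controls were probe without protein and protein plus probe with vehicle; some compounds called inactive have numbers as strong as hits; many hits fall short of the cut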
eIF4H inh: human eIF4H binding inhibitors, primary screen, translation initiation inhibitor project, biochemical, uHTS, fluorescence polarization | Eukaryotic translation initiation factor 4H (Homo sapiens), Q15056 | eIF4H fluorescence polarization binding assay | inhibition, % at 35 µM | hit rate 0.94% among 290,000;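 active = 50% or more with normal probe brightness, or confirmed in later tests; about a fifth of its hits are not listed in these tables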;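 note: calls also rest on retests at 20 µM and on dose response follow-up; 0% = protein and probe with vehicle and 100% = probe without protein; strong numbers were not always called active; many hits fall short of the cut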
MT1-MMP act inh: blockers of MT1-MMP proenzyme processing, primary screen, HT1080 RFP-PRO-GFP cells, GFP/RFP fluorescence; hit rate 0.061% among 360,000; AID 651647, 2012; Matrix metalloproteinase-14 (Homo sapiens), P50281; GFP/RFP ratio fluorescence, overnight; percent of plate control window, DMSO zero; GFP/RFP ratio change, % at 20 µM;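 active = GFP/RFP ratio change of at least 30% with cell ATP level not reduced by more than half and red fluorescence within 50% of control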; note: strong numbers were not always called active
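Test system: HT1080 cells expressing an RFP-PRO-GFP fluorescent reporter construct / Compound dosing: single-point 20 µM compound, 1% DMSO / Schedule: cells overnight before dosing, compound overnight, 37 °C, 5% CO2 / Evaluation: GFP/RFP fluorescence ratio / Control set: DMSO and RFP-L50D-GFP cell wells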
CSC inhib: cancer stem cell viability inhibitors, primary screen, luminescence; cancer stem cell-like cells viability; inhibition, % at 7.5 µM; hit rate 1.1% among 300,000; AID 2717, 2010;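 active = mean at 75% or more and at least half the replicates too; tested in HMLE shEcad cells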;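 note: 0% = median of negative and 100% = median of positive control wells; the first replicate is given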
eIF4H inh retest: further read-out of eIF4H inh, marked with its call; inhibition, %; compound at 20 µM; confirmation average;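 mean of two retest wells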
PABP polyA inh retest: second read-out of PABP polyA inh, no call of its own (marks repeat the call); inhibition, %; compound at 20 µM; confirmation repeats;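 mean of two retest wells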
MT1-MMP act inh RFP: second read-out of MT1-MMP act inh, no call of its own (marks repeat the call); RFP signal change, %; measured here: RFP expression control read;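 0 = vehicle wells; hits needed this value within 50% of zero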
* marks the source's active call; other numbers are inactive results; i = inactive; . = not tested or not shown. The list is partial; rates above refer to the full screens.

SMILES	HIV Env fusion	Rce1 inhib	Yeast UUG start	PABP polyA inh	eIF4H inh	MT1-MMP act inh	MT1-MMP act inh RFP	CSC inhib	others
CC(=O)N1CCCc2cc(S(=O)(=O)N3CCCC(C(=O)Nc4cccc(F)c4)C3)ccc21 (configuration not stated)	8	i	16	0	-16	-6	-16	-8
CC(=O)c1c(Cl)nc2ccc(Br)cc2c1-c1ccccc1	7	i	-10	-3	-8	3	-5	56
COc1ccc(Cl)cc1N1C(=O)CC(N2CCc3ccccc32)C1=O (configuration not stated)	-105	i	-13	-16	-3	0	-1	-5
CN(C)C(=O)N1CCN(C(=O)N2CCOCC2)CC1	4	i	-20	-2	-7	-3	11	6
Cc1cccc(Nc2ncnc(N)n2)c1	10	i	-5	1	-3	2	3	1
O=C(Cc1nc2ccccc2[nH]1)NCc1ccco1	.	i	-21	24	12	-8	4	8
O=C(CCCN1C(=O)/C(=C/c2ccccc2Cl)SC1=S)NNC(=O)c1ccccc1	30	i	-11	1	-12	0	-3	5
O=S(=O)(c1ccc(Br)s1)N1CCN(c2ccnc3cc(Cl)ccc23)CC1	16	i	-4	9	1	0	-16	8
CC(C)n1cnc2cc(NC(=O)c3ccco3)ccc21	-23	i	-25	14	-3	-1	3	4
CCC[N+](CC#Cc1ccccc1)(CCC)CC(=O)c1ccc(Cl)cc1	.	i	.	-1	-4	-3	-1	30
O=C(NCCN1CCCCC1)Nc1ccc([N+](=O)[O-])cc1	-5	i	-14	-6	-4	-1	4	.
COc1ccc(CNC(=O)CN2CCN(c3cccc(C)c3C)CC2)cc1	19	i	3	-3	0	1	0	4
O=C(CN1CCN(C(=O)c2ccccc2)CC1)NC(=O)NCCC1=CCCCC1	32	.	.	.	.	0	-5	-14
CN(C(=O)CCS(=O)(=O)c1ccc2c(c1)oc(=O)n2C)C1CCCCC1	6	i	-27	1	-1	-3	-1	-20
CCNC(=S)N(CCc1c(C)[nH]c2ccc(C)cc12)Cc1ccco1	12	i	-22	13	-6	-4	-3	23
Cc1ccc(-n2c(N)c(C(N)=O)sc2=S)c(C)c1	.	i	-15	16	60*	-3	-3	4	eIF4H inh retest=90*;PABP polyA inh retest=12
O=C(CN1C(=O)NC2(CCCC2)C1=O)NCc1ccc(Cl)cc1	3	.	-11	.	.	0	1	-11
CC(C)COC(=O)c1ccc(N2C(=O)c3ccccc3C2=O)cc1	5	i	8	-1	2	0	-2	-13
CCOc1ccc(C(=O)Nc2ccc(N3CCN(S(C)(=O)=O)CC3)cc2)cc1[N+](=O)[O-]	20	i	.	-5	2	-2	2	-10
CCOc1ccc(NC(=O)c2c(NC(=O)CNCCN3CCOCC3)sc3c2CCC3)cc1	15	i	-18	-6	4	0	-3	0
CCOCC(=O)Nc1cccc(SC)c1	-12	i	.	6	-3	1	2	26
O=C(c1ccncc1)N1CCN(C(=O)c2ccco2)CC1	-22	i	-11	20	-4	-2	-2	-11
COc1ccc(C(=O)Nc2ccccc2C(=O)NCc2ccco2)cc1	-1	i	-3	-1	-8	1	1	2
C=C1CCN([C@@H](C)C(=O)OCc2ccc(C)cc2)S(=O)(=O)c2ccccc21	31	i	-12	-3	-8	9	-2	-2
COC(=O)C1C/C(=N\NS(=O)(=O)c2ccc(C)cc2)c2ccsc2C1 (configuration not stated)	-2	i	-21	-12	-8	2	4	-5

Fetched by compound from the entries so far:
SMILES	HIV Env fusion	Rce1 inhib	Yeast UUG start	PABP polyA inh	eIF4H inh	MT1-MMP act inh	MT1-MMP act inh RFP	CSC inhib	others
O=C(NCCN1CCCCC1)Nc1ccc([N+](=O)[O-])cc1	-5	i	-14	-6	-4	-1	4	.
O=S(=O)(c1ccc(Br)s1)N1CCN(c2ccnc3cc(Cl)ccc23)CC1	16	i	-4	9	1	0	-16	8

Other records follow.
SMILES	HIV Env fusion	Rce1 inhib	Yeast UUG start	PABP polyA inh	eIF4H inh	MT1-MMP act inh	MT1-MMP act inh RFP	CSC inhib	others
Cc1nc2c(-c3ccc(F)cc3)c(C)nn2c(C)c1CCC(=O)N1CCN(c2ccccc2)CC1	37	i	31	1	-6	5	-1	34
CN(C)C(=O)c1cccn(Cc2ccc(C(F)(F)F)cc2)c1=O	-13	i	-10	43	2	-2	-1	3
CC(C)c1ccc(/C=C2\SC(=O)N(CC(=O)NC3CCS(=O)(=O)C3)C2=O)cc1 (configuration not stated)	-35	i	-5	-8	0	5	-13	0
CC1CCN(c2ccc(S(=O)(=O)NC3=NCCCCC3)cc2[N+](=O)[O-])CC1	8	i	-16	-10	-3	-1	-18	-11
COc1ccc(NC(=O)N(C)C[C@@H]2OCc3cnnn3CCCC(=O)N([C@H](C)CO)C[C@H]2C)cc1	12	.	19	.	.	-3	5	.
O=C(NCc1cccnc1)/C(=C/c1ccc(-c2cccc(Cl)c2)o1)S(=O)(=O)c1ccccc1	.	i	.	8	-2	.	.	100*

Nothing new here: 17 of the compounds above.
SMILES	HIV Env fusion	Rce1 inhib	Yeast UUG start	PABP polyA inh	eIF4H inh	MT1-MMP act inh	MT1-MMP act inh RFP	CSC inhib	others
CC(=O)N1CCCc2cc(S(=O)(=O)N3CCCC(C(=O)Nc4cccc(F)c4)C3)ccc21 (configuration not stated)	8	i	16	0	-16	-6	-16	-8
CC(=O)c1c(Cl)nc2ccc(Br)cc2c1-c1ccccc1	7	i	-10	-3	-8	3	-5	56
COc1ccc(Cl)cc1N1C(=O)CC(N2CCc3ccccc32)C1=O (configuration not stated)	-105	i	-13	-16	-3	0	-1	-5
CN(C)C(=O)N1CCN(C(=O)N2CCOCC2)CC1	4	i	-20	-2	-7	-3	11	6
Cc1cccc(Nc2ncnc(N)n2)c1	10	i	-5	1	-3	2	3	1
O=C(Cc1nc2ccccc2[nH]1)NCc1ccco1	.	i	-21	24	12	-8	4	8
O=C(CCCN1C(=O)/C(=C/c2ccccc2Cl)SC1=S)NNC(=O)c1ccccc1	30	i	-11	1	-12	0	-3	5
O=S(=O)(c1ccc(Br)s1)N1CCN(c2ccnc3cc(Cl)ccc23)CC1	16	i	-4	9	1	0	-16	8
CC(C)n1cnc2cc(NC(=O)c3ccco3)ccc21	-23	i	-25	14	-3	-1	3	4
CCC[N+](CC#Cc1ccccc1)(CCC)CC(=O)c1ccc(Cl)cc1	.	i	.	-1	-4	-3	-1	30
O=C(NCCN1CCCCC1)Nc1ccc([N+](=O)[O-])cc1	-5	i	-14	-6	-4	-1	4	.
COc1ccc(CNC(=O)CN2CCN(c3cccc(C)c3C)CC2)cc1	19	i	3	-3	0	1	0	4
O=C(CN1CCN(C(=O)c2ccccc2)CC1)NC(=O)NCCC1=CCCCC1	32	.	.	.	.	0	-5	-14
CN(C(=O)CCS(=O)(=O)c1ccc2c(c1)oc(=O)n2C)C1CCCCC1	6	i	-27	1	-1	-3	-1	-20
CCNC(=S)N(CCc1c(C)[nH]c2ccc(C)cc12)Cc1ccco1	12	i	-22	13	-6	-4	-3	23
Cc1ccc(-n2c(N)c(C(N)=O)sc2=S)c(C)c1	.	i	-15	16	60*	-3	-3	4	eIF4H inh retest=90*;PABP polyA inh retest=12
O=C(CN1C(=O)NC2(CCCC2)C1=O)NCc1ccc(Cl)cc1	3	.	-11	.	.	0	1	-11
